# Mtb growth = M. tuberculosis H37Rv growth inhibitors, H37Rv strain (AID 1626). M. tuberculosis H37Rv growth inhibition; higher % means a stronger effect. inhibition, % at 10 µM, or IC50 in µM where a hit was titrated. 220,000 compounds, 0.95% hits;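 active means confirmed in a dose series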;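 further: bacteria incubated seven days before Alamar blue readout; 0% = bacteria only wells and 100% = bacteria with antibiotic wells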
# Arbovirus anti = antivirals against arbovirus infection; inhibition, % at 10 µM; arbovirus infection cell-based antiviral screen; AID 1251; 200,000 compounds, 0.37% hits;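 active means inhibition from about 30%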;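 further: bluetongue infection of BSR cells; cell survival read as ATP light after 72 h; 0% = infected wells without compound and 100% = uninfected wells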
# Mtb bLac sens = beta-lactam sensitization of Mtb H37Rv; inhibition, % at 25 µM; 330,000 compounds, 0.27% hits; M. tuberculosis H37Rv growth with meropenem, percent inhibition; hits of this screen are not shown here;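 active means about 74% or more and at least 40 points above the plate without the antibiotic, then above 30% in a dose series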;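 further: growth measured after seven days incubation then overnight dye step; 0% = bacteria only wells and 100% = bacteria with antibiotic; twin plates without the antibiotic show which effects depend on it; some results filed as inactive read as strong as hits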
# YopH PTP inh = inhibitors of Yersinia enterocolitica YopH tyrosine phosphatase; fluorescence Ex485/Em525; 140,000 compounds, 0.16% hits; inhibition, %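 (about 10 µM by stock and volumes)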;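 active means inhibition of 50% or more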;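 further: controls were vehicle for no effect and minimum signal wells for full effect; inactives centre near -20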
# RecA splice inh = Mtb RecA intein splicing inhibition. P9WHJ3. cell-free RecA intein splicing, fluorescence. inhibition, %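 (about 9 µM by stock and volumes)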. 290,000 compounds, 0.75% hits; in the data active means inhibition above about 30%;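 further: 0% = vehicle wells and 100% = reference inhibitor control wells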
# Target sequence (P9WHJ3 whole entry, looked up, canonical isoform): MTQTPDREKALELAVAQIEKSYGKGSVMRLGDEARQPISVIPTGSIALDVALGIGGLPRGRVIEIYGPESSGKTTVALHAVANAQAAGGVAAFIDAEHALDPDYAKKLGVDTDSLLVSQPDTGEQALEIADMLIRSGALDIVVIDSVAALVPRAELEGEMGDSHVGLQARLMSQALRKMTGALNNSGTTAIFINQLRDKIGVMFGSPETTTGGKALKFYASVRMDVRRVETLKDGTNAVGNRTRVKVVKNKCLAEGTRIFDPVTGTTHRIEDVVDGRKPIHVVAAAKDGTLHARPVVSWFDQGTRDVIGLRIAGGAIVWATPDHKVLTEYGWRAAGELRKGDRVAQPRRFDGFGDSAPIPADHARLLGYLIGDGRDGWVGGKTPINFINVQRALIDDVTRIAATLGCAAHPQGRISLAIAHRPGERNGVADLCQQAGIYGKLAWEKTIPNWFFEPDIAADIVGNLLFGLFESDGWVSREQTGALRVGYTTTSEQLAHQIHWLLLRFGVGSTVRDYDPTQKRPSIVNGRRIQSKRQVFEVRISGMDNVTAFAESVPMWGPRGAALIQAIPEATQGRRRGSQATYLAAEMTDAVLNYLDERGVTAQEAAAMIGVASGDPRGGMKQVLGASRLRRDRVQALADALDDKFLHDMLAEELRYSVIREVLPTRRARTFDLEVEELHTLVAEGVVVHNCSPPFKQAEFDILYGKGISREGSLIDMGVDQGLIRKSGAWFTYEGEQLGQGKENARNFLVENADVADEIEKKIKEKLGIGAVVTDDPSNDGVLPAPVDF
# * hit, by the source's call; / = not tested or not shown.
(1) CC1(C(=O)N2CC3(CC(c4ccccc4)=NO3)C[C@H]2C(=O)NCC(N)=O)CC1 (some centres undefined)
(2) Cn1nc(C(F)(F)F)c(-c2ccccc2)c1NC(=O)c1ccco1
(3) CNC(=O)N(c1ccccc1)c1ccccc1
(4) CCOC(=O)C1CCN(C(=O)c2cc3c(s2)-c2ccccc2OC3)CC1
(5) O=C(CSc1nnc(CNC(=O)c2c(F)cccc2F)o1)NCc1ccco1
assay / entry	1	2	3	4	5
Mtb bLac sens	-18.0	-0.3	-20.6	-5.2	9.1
YopH PTP inh	-36.5	/	-37.7	/	/
RecA splice inh	-8.1	6.7	1.1	0.4	-4.7
Arbovirus anti	3.2	/	-2.2	/	/
Mtb growth	-8.3%	-0.5%	2.7%	/	/

(6) CC1(C)CC(=O)C(C=NCCc2ccc(O)cc2)=C(O)C1
(7) CN(C)CCn1c(=O)n(-c2cccc(Cl)c2)c(=O)c2c3c(sc21)CCCCC3
(8) CC(=O)C1CCC2C3CCC4=CC(=O)CC[C@]4(C)[C@@]3(F)C(O)C[C@]12C (some centres undefined)
(9) CCn1nnc(NC(=O)c2cccc(-c3cc4ccccc4oc3=O)c2)n1
(10) O=S(=O)(NC1CC(NS(=O)(=O)OCC(Cl)(Cl)Cl)C2CCCCC12)OCC(Cl)(Cl)Cl (centres undefined)
assay / entry	6	7	8	9	10
Mtb bLac sens	-4.9	75.8	3.5	23.5	-14.6
YopH PTP inh	-28.4	/	/	-14.8	/
RecA splice inh	/	-1.5	1.0	0.0	13.3
Arbovirus anti	-3.6	/	/	6.2	/
Mtb growth	-2.8%	-17.2%	-0.9%	2.5%	/

(11) Nc1nonc1-n1nnc(C(=O)N/N=C/c2ccoc2)c1-c1ccccc1
(12) Cc1ccnc(NS(=O)(=O)c2cccc([N+](=O)[O-])c2)c1
(13) COCCCn1c(SCC(=O)c2ccccc2)nc2ccccc2c1=O
(14) N#CC1=C(SCc2ccccc2)NC(=O)CC1c1cccc(O)c1 (centres undefined)
(15) O=C(O)c1ccc(N2C(=O)C3C4c5ccccc5C(Br)(c5ccccc54)C3C2=O)cc1 (centres undefined)
assay / entry	11	12	13	14	15
Mtb bLac sens	7.8	-3.4	3.2	13.0	-7.2
YopH PTP inh	/	/	/	-49.3	/
RecA splice inh	-1.1	2.5	-0.6	1.2	3.8
Arbovirus anti	/	/	-4.9	12.2	-3.1
Mtb growth	/	-0.9%	3.8%	-1.0%	-0.1%

(16) CC(=S)/C=C1\Sc2ccccc2N1C
(17) COc1ccc(C(CNc2ncnc3sc(C)c(C)c23)N(C)C)cc1 (centres undefined)
(18) Cc1nnc(NC(=O)c2cccc(S(=O)(=O)N3CCOCC3)c2)s1
(19) CN(Cc1ccccc1)C(=O)Cn1c(=O)c2cccn2c2cccnc21
(20) Cn1cccc1/C=C1\SC(=O)N(c2ccccc2)C1=O
assay / entry	16	17	18	19	20
Mtb bLac sens	1.6	-11.7	-1.2	-0.4	-0.6
YopH PTP inh	-28.8	/	-15.8	/	-16.9
RecA splice inh	1.4	2.0	-2.0	-3.1	-3.8
Arbovirus anti	-2.8	/	10.8	/	-13.7
Mtb growth	-7.0%	/	-10.9%	/	-3.6%

# A run of entries from further up, for reference:
(16) CC(=S)/C=C1\Sc2ccccc2N1C
(17) COc1ccc(C(CNc2ncnc3sc(C)c(C)c23)N(C)C)cc1 (centres undefined)
assay / entry	16	17
Mtb bLac sens	1.6	-11.7
YopH PTP inh	-28.8	/
RecA splice inh	1.4	2.0
Arbovirus anti	-2.8	/
Mtb growth	-7.0%	/

# More records follow:
(21) COc1cc(NC(=O)Cn2nnc(-c3ccncc3)n2)cc(OC)c1
(22) COc1ccc(NC(=S)NN2CCN(C)CC2)cc1OC
(23) c1ccc(C[C@H]2CNCCN2CC2CCCCC2)cc1
(24) COc1ccc(OCCN2CCN(C(=O)c3ccc(OC(F)F)c(OC)c3)CC2)cc1
assay / entry	21	22	23	24
Mtb bLac sens	7.3	2.5	-6.2	-10.8
YopH PTP inh	-12.5	-26.9	/	/
RecA splice inh	-0.1	1.6	-1.6	0.0
Arbovirus anti	8.4	0.3	/	/
Mtb growth	1.2%	/	/	/

# Of the compounds above, 8 have a carbonyl joined to an NH by a bond outside any ring:
(1) CC1(C(=O)N2CC3(CC(c4ccccc4)=NO3)C[C@H]2C(=O)NCC(N)=O)CC1 (some centres undefined)
(2) Cn1nc(C(F)(F)F)c(-c2ccccc2)c1NC(=O)c1ccco1
(3) CNC(=O)N(c1ccccc1)c1ccccc1
(5) O=C(CSc1nnc(CNC(=O)c2c(F)cccc2F)o1)NCc1ccco1
(9) CCn1nnc(NC(=O)c2cccc(-c3cc4ccccc4oc3=O)c2)n1
(11) Nc1nonc1-n1nnc(C(=O)N/N=C/c2ccoc2)c1-c1ccccc1
(18) Cc1nnc(NC(=O)c2cccc(S(=O)(=O)N3CCOCC3)c2)s1
assay / entry	1	2	3	5	9	11	18
Mtb bLac sens	-18.0	-0.3	-20.6	9.1	23.5	7.8	-1.2
YopH PTP inh	-36.5	/	-37.7	/	-14.8	/	-15.8
RecA splice inh	-8.1	6.7	1.1	-4.7	0.0	-1.1	-2.0
Arbovirus anti	3.2	/	-2.2	/	6.2	/	10.8
Mtb growth	-8.3%	-0.5%	2.7%	/	2.5%	/	-10.9%

(21) COc1cc(NC(=O)Cn2nnc(-c3ccncc3)n2)cc(OC)c1
assay / entry	21
Mtb bLac sens	7.3
YopH PTP inh	-12.5
RecA splice inh	-0.1
Arbovirus anti	8.4
Mtb growth	1.2%

# An excerpt; the hit share may differ from the screen's.
